Bioassay records (PubChem)
PABP polyA inh = blocks human PABP binding to poly(A) RNA | 290,000 tested, 1% active | AID 2014 | inhibition, % at 35 µM | P11940 | fluorescence polarization;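 active means 50% or more with normal probe brightness, or confirmed in later tests; inconclusive means above 50% with abnormal brightness, or retests that disagree; inactive means below 50% or failed in later tests; about a fifth of its hits are not listed in these tables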;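 further: calls also rest on retests at 20 µM and on dose response follow-up; controls were probe without protein and protein plus probe with vehicle; some compounds called inactive have numbers as strong as hits; many hits fall short of the cut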
HIV Env fusion = HIV envelope-mediated fusion inhibition; HeLa-JRFL Env/CEM21 cell fusion, luciferase; inhibition, % at 12.3 µM; 360,000 tested, 1.1% active; AID 651610;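 active means mean replicate inhibition score of at least 50 and every replicate individually at or above 50; inconclusive means only one of the two criteria met; inactive means mean below 50 and not all replicates reaching 50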;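 further: 0% = plate neutral controls and 100% = maraviroc near 300 nM; one replicate is shown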
CSC inhib = cancer stem cell inhibition. cancer stem cell-like cells viability, luminescence. inhibition, % at 7.5 µM. 300,000 tested, 1.1% active. AID 2717;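 active means mean at 75% or more and at least half the replicates too; inconclusive means mean and replicates disagree; tested in HMLE shEcad cells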;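 further: 0% = median of negative and 100% = median of positive control wells; the first replicate is given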
MT1-MMP act inh = inhibitors of human MT1-MMP activation; GFP/RFP ratio change, % at 20 µM; 360,000 tested, 0.061% active; AID 651647; HT1080 RFP-PRO-GFP cells, GFP/RFP ratio fluorescence, overnight; percent of plate control window, DMSO zero; P50281;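 active means GFP/RFP ratio change of at least 30% with cell ATP level not reduced by more than half and red fluorescence within 50% of control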; further: strong numbers were not always called active
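Assay system: HT1080 RFP-PRO-GFP cells. Benchmarks: DMSO vehicle wells and RFP-L50D-GFP reporter cell wells. Times: overnight cell settling, then overnight compound exposure, 37 °C, 5% CO2. Compound: 20 µM single dose, 1% DMSO. Read-out basis: GFP/RFP fluorescence ratio.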
Rce1 inhib = inhibitors of yeast Ras-converting enzyme; Q03530; yeast membranes, quenched prenylated peptide cleavage fluorescence; calls only; 290,000 tested, 0.27% active; AID 2563;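 active means fall in fluorescence gain of 50% or more versus controls, with final raw signal at or below 3038400; inconclusive means same 50% fall but final raw signal above 3038400; inactive means fall in fluorescence gain under 50%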;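 further: plate controls were neutral control wells for no effect and wells lacking membranes for full effect; tested at 10 µM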
Target sequence (Q03530 whole entry, looked up): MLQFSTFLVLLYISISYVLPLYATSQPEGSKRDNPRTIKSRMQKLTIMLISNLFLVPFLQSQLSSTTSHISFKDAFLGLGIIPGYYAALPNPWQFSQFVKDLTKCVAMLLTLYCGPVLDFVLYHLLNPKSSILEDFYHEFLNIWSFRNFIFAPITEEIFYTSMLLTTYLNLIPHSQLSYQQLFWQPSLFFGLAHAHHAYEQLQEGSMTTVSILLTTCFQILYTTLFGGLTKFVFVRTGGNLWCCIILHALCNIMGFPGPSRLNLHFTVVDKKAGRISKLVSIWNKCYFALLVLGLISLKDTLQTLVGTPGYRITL
UUG fidelity = alters start codon recognition fidelity in yeast | S. cerevisiae UUG-firefly luciferase reporter, luminescence/redox ratio | activity score, % at 18.7 µM | 350,000 tested, 0.13% active | AID 602363;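 active means replicate mean at a twofold rise or more, about +100% in these data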;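 further: firefly luciferase made from a UUG start codon reports start codon fidelity; reporter light over untreated wells divided by growth signal over untreated wells; some hits fall short of that in this replicate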
eIF4H inh = inhibitors of RNA binding by human eIF4H. Q15056. eIF4H fluorescence polarization binding assay. inhibition, % at 35 µM. 290,000 tested, 0.94% active;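 active means 50% or more with normal probe brightness, or confirmed in later tests; inconclusive means above 50% with abnormal brightness, or retests that disagree; inactive means below 50% or failed in later tests; about a fifth of its hits are not listed in these tables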;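 further: calls also rest on retests at 20 µM and on dose response follow-up; 0% = protein and probe with vehicle and 100% = probe without protein; strong numbers were not always called active; many hits fall short of the cut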
eIF4H inh retest = recorded beside eIF4H inh, whose call it bears; inhibition, %; compound at 20 µM; confirmation average;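 mean of two retest wells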
PABP polyA inh retest = also measured in PABP polyA inh; calls as there; inhibition, %; compound at 20 µM; confirmation repeats;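 mean of two retest wells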
MT1-MMP act inh RFP = second read-out of MT1-MMP act inh, no call of its own (marks repeat the call); RFP signal change, %; measured here: RFP expression control read;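 0 = vehicle wells; hits needed this value within 50% of zero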
Active calls of the source: *; i = inactive; ? = inconclusive; nt = not tested or not shown.

SMILES	PABP polyA inh	HIV Env fusion	CSC inhib	MT1-MMP act inh	MT1-MMP act inh RFP	Rce1 inhib	UUG fidelity	eIF4H inh	others
CC(C)(O)C#Cc1ccc(C(=O)N2CCN(c3ccc([N+](=O)[O-])cc3)CC2)cc1	16	2	16	2	-16	i	nt	-1
S=C(NCC1(c2ccccc2)CCCC1)Nc1ccccc1	73	31	-16	-11	-29	i	-26	10	eIF4H inh retest=-18;PABP polyA inh retest=9
N#Cc1ccc(OCc2nnc3n2CCCCC3)cc1	12	2	12	-8	-5	i	nt	-3
CCOc1ccc2nc(Cl)c(CN(C(=O)c3cnccn3)C3CCCC3)cc2c1	-10	26	-7	0	-4	i	nt	-2
COc1ccc2sc(NC(C)=O)nc2c1	16	-44	-10	10	2	i	-13	-9
CCCc1ccc(C(=O)COC(=O)CN2C(=O)NC3(CCCCC3C)C2=O)cc1 (stereo unspecified)	nt	-16	-11	6	0	nt	2	nt
C=CCn1c(C)cc(C(=O)CSc2nnc(NC(C)C)s2)c1C	2	nt	-11	-1	3	i	-11	11
COC(=O)CCCNC(=O)c1ccc(OC2CCN(CCc3ccccc3)CC2)cc1	1	5	0	3	6	i	3	-2
O=C(N/N=C/c1ccc(OC(=O)c2cccs2)cc1)c1ccccn1	-7	-10	-6	-3	-4	i	-26	-8
COc1ccc(CC(=O)Nc2c3c(nn2-c2cccc(C)c2C)CS(=O)C3)cc1 (stereo unspecified)	-4	nt	6	-4	-4	i	2	-1
Cc1onc(-c2ccccc2Cl)c1C(=O)N1CCN(c2nc3ccccc3s2)CC1	3	-9	-3	-4	-23	i	13	6
Cc1cc(C)cc(-n2c(C)cc(C=C(C#N)C#N)c2C)c1	-10	-44	nt	1	-1	i	-27	-2
Cc1ccc(NC(=O)N2CCCCCC2)c(C)c1	-2	-17	-13	-2	5	i	-19	-7
CCOC(=O)N1CCN(Cc2cc(=O)oc3ccc(Cl)cc23)CC1	-6	-33	-11	3	7	i	-20	-1
O=C1OCC(Cn2c3ccccc3c3ccccc32)O1 (stereo unspecified)	12	-115	4	1	-4	i	-20	-2
CN(/C(=N/S(=O)(=O)c1cccs1)c1ccccc1)c1ccccc1	0	nt	-9	-4	-2	i	nt	-1
CCC(Oc1ccccc1F)C(=O)Nc1ccc2c(c1)n(C)c(=O)n2C (stereo unspecified)	15	4	2	4	0	i	-8	-8
COc1cc2c(cc1OC)C(C(=O)Nc1ccc3c(c1)OCCO3)C(c1cccnc1)N(C)C2=O (stereo unspecified)	-12	-19	-11	0	6	i	-20	-8
O=C(Nc1ccc(Cl)cn1)C1C(c2ccccc2)C1(Cl)Cl (stereo unspecified)	14	-16	25	-5	-3	nt	-4	1
CN(C1CCCCC1)S(=O)(=O)c1cccc(C(=O)OCC(=O)NC2CCCc3ccccc32)c1 (stereo unspecified)	-2	42	0	-3	1	i	nt	-2
COc1cc2c(=O)n(CCCN3CCOCC3)c(=S)[nH]c2c(OC)c1OC	-1	-42	nt	1	-2	i	-1	-14
COc1cc(/C=N/NC(=O)CSc2ccccn2)ccc1OC(C)C	2	-8	-6	-1	1	nt	-11	-2
COc1ccc(NC(=O)CN(C)C(=O)/C=C/c2ccc(S(=O)(=O)N3CCCCCC3)cc2)cc1	nt	6	14	-10	-3	i	-2	nt
C=CCNC(=O)C12CC3(C)CC(C)(CC(C)(C3)C1)C2	-1	nt	2	0	-2	i	-18	-2
Cc1cc(C)n(-c2ccc(C(=O)Oc3ccc4c(c3)OCO4)cc2)n1	-3	-43	9	-10	-5	i	-25	-7
Cc1ccc(S(=O)(=O)N2[C@@H](c3ccc(Cl)c(Cl)c3)C(C(=O)O)=C[C@H]2CC2CCCC2)cc1	nt	20	nt	9	-1	nt	-23	nt
Cc1ccc(S(=O)(=O)NC(=NC2CCCCC2)c2ccccc2)cc1	14	11	-2	-1	-1	i	-11	-4
Oc1ccc(Cl)cc1C1=NNC(c2ccc(Cl)cc2)C1 (stereo unspecified)	-7	-50	52	0	-4	i	nt	2
O=C(NCCOc1ccc(Cl)cc1)C1CCCCC1	3	2	-9	2	0	i	-13	-14
COc1ccccc1CNC(=O)CCCC(=O)n1nc(C)c2ccccc21	3	0	-15	1	3	i	-23	-14

The closing 4 records of the part before open the next one.
SMILES	PABP polyA inh	HIV Env fusion	CSC inhib	MT1-MMP act inh	MT1-MMP act inh RFP	Rce1 inhib	UUG fidelity	eIF4H inh	others
Cc1ccc(S(=O)(=O)NC(=NC2CCCCC2)c2ccccc2)cc1	14	11	-2	-1	-1	i	-11	-4
Oc1ccc(Cl)cc1C1=NNC(c2ccc(Cl)cc2)C1 (stereo unspecified)	-7	-50	52	0	-4	i	nt	2
O=C(NCCOc1ccc(Cl)cc1)C1CCCCC1	3	2	-9	2	0	i	-13	-14
COc1ccccc1CNC(=O)CCCC(=O)n1nc(C)c2ccccc21	3	0	-15	1	3	i	-23	-14
CCN(CC)C(=O)C1c2ccccc2Oc2ccccc21	?	-3	17	-66	-10	i	7	?
Cc1nn(-c2ccccc2)c(Oc2ccc(F)cc2)c1/C=N/n1cnnc1	2	nt	6	3	2	nt	-17	-3
O=c1[nH][nH]c(C(F)(F)F)c1C=NCc1ccc(Cl)cc1	0	nt	nt	4	9	i	-13	-11
CCOC(=O)C(C(=O)NCCCN1CCOCC1)C1CCCCC1 (stereo unspecified)	6	nt	-10	-3	3	i	-4	-9
O=C(NCCCN1CCCC1)c1ccc2c(c1)N(Cc1ccc(F)cc1)C(=O)c1ccccc1S2=O (stereo unspecified)	-12	-8	9	-6	0	i	nt	-4
CCOC(=O)c1cnc(N2CCN(C(=O)OCC)CC2)[nH]c1=O	-3	6	22	0	3	i	3	-1
N#CCC(=O)Nc1ccc(C(=O)OCC(=O)N(C2CCCCC2)C2CCCCC2)cc1	14	7	6	-13	-8	i	3	40
CCOn1c(=O)c[n+]([O-])c2ccccc21	-7	6	11	-33	6	i	-19	2
O=C1NC(=O)/C(=C/c2ccc(-c3cc(C(=O)O)ccc3Cl)o2)S1	83*	-15	-8	6	-5	i	-2	92*
CCOc1ccc(S(=O)(=O)Nc2cc(Sc3ncn[nH]3)c3oc(=O)sc3c2)cc1	4	nt	-2	nt	nt	i	nt	11
O=C(COC(=O)c1ccccc1NC(=O)c1ccccc1)c1cccc([N+](=O)[O-])c1	-1	11	11	0	6	i	nt	-5
CCn1c2c(c3cc(OCC(C)C)ccc31)CCCC2=O	4	nt	32	-3	-2	i	7	-7
CCOC(=O)c1[nH]c2ccc(OC)cc2c1NS(=O)(=O)c1ccc(OC)cc1OC	6	-7	-17	0	-3	i	17	7
CC(Sc1nnc(-c2ccccc2)c(-c2ccccc2)n1)C(=O)NCC1CCCO1 (stereo unspecified)	nt	7	0	-2	-1	nt	-12	nt
COCCNC(=O)C1CC2Cn3c(nc4ccccc43)C2N1C (stereo unspecified)	2	-5	12	3	0	i	-6	7
COc1ccc(CN(C)C(=O)COC(=O)c2c(C)nn(-c3ccc(F)cc3)c2Cl)cc1	nt	16	-11	2	-3	nt	0	nt
Fc1ccc2c(c1)C(c1ccncc1)=NNC(c1ccc(Cl)cc1)=N2	-1	33	-3	-6	0	i	-8	-6
COC(=O)c1sc(N2C(=O)C(O)=C(C(=O)c3ccc(C)o3)C2c2ccc([N+](=O)[O-])cc2)nc1C (stereo unspecified)	30	22	-6	7	-2	i	14	7
C/C(CC(=O)Nc1ccc(Cl)cc1Cl)=N\NC(=O)C(=O)N1CCCC1	-8	9	nt	-5	-8	i	nt	-5
O=C(NNC(=O)C1CC1)c1cc2cc3ccccc3nc2s1	4	6	24	-4	-1	i	nt	9
Cc1nc2nc(C)c(NS(=O)(=O)c3ccc4c(c3)CCCC4)c(=O)n2[nH]1	13	0	nt	-1	3	i	-1	0
O=C(CN(CCN1CCOCC1)C(=O)Cn1nnc(-c2ccc(F)cc2)n1)NC1CCCCC1	4	33	15	0	0	i	-5	-2
CC(CCOS(N)(=O)=O)c1ccccc1 (stereo unspecified)	5	nt	4	2	4	i	-8	-16
COc1cc(NC(C)=O)c2ncccc2c1[N+](=O)[O-]	5	nt	-18	-9	-1	i	nt	6
Cc1ccccc1C(=O)c1c[nH]c(C(N)=O)c1	-7	nt	-5	1	7	i	-8	-3
CCP(=O)(CC)C(C)(C)CP(=O)(c1ccccc1)c1ccccc1	3	nt	-3	4	-5	i	-5	-1
O=C(O)c1ccc(CNC(=O)c2ccc(S(=O)(=O)N3CCCC3)cc2)cc1	nt	-16	nt	8	7	nt	-21	nt
Cc1ccc(OCc2cc(C(=O)N(C)C3CCCc4ccccc43)no2)cc1C (stereo unspecified)	nt	-12	nt	0	0	nt	13	nt
CC1CCCCC1NC(=O)CN1C(=O)CSc2cc(S(=O)(=O)N3CCCCCC3)ccc21 (stereo unspecified)	3	nt	-5	2	-2	i	nt	-4
CN(c1ccc(O)cc1)c1nc(O)c(C2=c3ccccc3=NC2=O)s1	nt	-38	14	10	-11	i	nt	nt
Cc1ccc(C(=O)CN(CCCC(N)=O)S(=O)(=O)c2ccc([N+](=O)[O-])cc2)cc1	nt	-21	-6	1	3	nt	-10	nt
COC(=O)CSc1ccc(S(=O)(=O)N2CCOCC2)cc1[N+](=O)[O-]	-6	1	-12	-3	0	i	-17	-3
O=C(COC(=O)C1COc2ccccc2O1)NC(=O)NC1CCCCC1 (stereo unspecified)	0	i	-8	7	11	i	1	2
COc1ccccc1-c1c(C)nn2c(N)c(-c3ccc(Cl)cc3)cnc12	-3	1	-27	-1	2	i	-33	-3
O=C(Oc1cccc(/C=N/NC(=O)c2ccccn2)c1)c1ccc([N+](=O)[O-])cc1	1	-47	6	2	2	i	-15	4
CCN(CC)P1(=O)OC(c2cc(OC)c(OC)c(OC)c2)=Nc2c1c(C)nn2-c1ccccc1 (stereo unspecified)	0	nt	-5	3	-4	i	4	-4
O=C(COC(=O)CCC(=O)c1cccs1)NCc1cccs1	2	-1	-5	1	-1	i	-2	-7
COCCCN(C(=O)CC1OC(=O)c2ccccc21)c1c(N)n(Cc2ccccc2)c(=O)[nH]c1=O (stereo unspecified)	-8	nt	-14	-2	3	i	-7	-4
COc1ccc(CC(=O)N/N=C/c2ccc(C)s2)cc1	nt	-2	-9	0	1	i	nt	nt
Cc1ccc(C(=O)N2CCN(c3ccc(NC(=O)c4ccc5c(c4)OCCO5)cc3)CC2)cc1	-1	65*	17	1	-28	i	-4	12
O=c1c2sccc2[nH]c(=S)n1-c1ccccc1	3	-4	-4	11	9	i	-30	-7
CC(Sc1nnnn1C)C(=O)Nc1ccc(Oc2ccccc2)cc1 (stereo unspecified)	1	-14	0	1	-5	i	-9	-9
C=CCn1c(SCC(=O)N2CCc3ccccc3C2)nc2sc(CC)cc2c1=O	8	33	5	11	-11	i	-1	-5
CNc1nc2cccnc2s1	-6	9	2	2	3	i	-26	-3
CC1CC2(C)CC(C)C1(COC(=O)Nc1ccccc1)CO2 (stereo unspecified)	-9	6	-18	1	1	i	2	7
COc1ccc(N(CC(=O)N/N=C/c2ccc(F)cc2)S(=O)(=O)c2ccccc2)cc1	0	8	-10	6	2	i	-3	75	eIF4H inh retest=-4;PABP polyA inh retest=15
